Assay outcomes deposited in PubChem BioAssay by several laboratories.
HSV augment: HSV replication enhancement | HSV replication augmentation in cells, fold increase | actives 0.005% (n = 220,000) | maximum fold increase;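 active means peak rise of 1.5-fold or more in the series; inconclusive means self-fluorescent or not available for retest; tested in PC3 cells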;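 further: first round at 10 µM; read as green reporter fluorescence; hits show the peak of a series up to 25 µM; 1 = signal of infected wells without compound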
GALR2 agonist: agonists of human galanin receptor 2 (GALR2); O43603; GALR2-expressing cells, agonist activation read-out; activation, %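 (tested at 5 µM)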; actives 0.48% (n = 140,000); AID 803;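 active means above mean plus 3 SD of all compounds, about 5% in these data, not always enough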;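 further: 0% = vehicle buffer wells and 100% = reference agonist at full effect; tested in CHO reporter cells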
Target sequence (O43603 whole entry, looked up): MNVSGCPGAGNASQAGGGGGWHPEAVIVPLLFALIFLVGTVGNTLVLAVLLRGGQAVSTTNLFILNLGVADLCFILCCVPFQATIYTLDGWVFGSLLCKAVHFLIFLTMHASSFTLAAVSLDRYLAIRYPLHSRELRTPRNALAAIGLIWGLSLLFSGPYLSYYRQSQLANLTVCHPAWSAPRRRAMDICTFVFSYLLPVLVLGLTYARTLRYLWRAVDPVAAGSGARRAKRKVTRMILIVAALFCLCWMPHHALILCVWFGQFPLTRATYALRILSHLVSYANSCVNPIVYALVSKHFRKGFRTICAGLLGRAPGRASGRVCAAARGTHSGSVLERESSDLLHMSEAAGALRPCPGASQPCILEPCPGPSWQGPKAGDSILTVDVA
INS promoter inh: TRM-6 insulin promoter activity inhibition; TRM-6 cells (human fetal islet line), insulin promoter-eGFP reporter, imaging; reporter expression induced with tamoxifen; inhibition, % at 2 µM; actives 0.9% (n = 130,000); AID 1273;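 active means inhibition above the mean plus 3 SD, with well images judged a real hit on visual review, cut at about 60% in these data, passing the limit was not always enough; inconclusive means inhibition over the cutoff but images rejected on review; inactive means inhibition not above the cutoff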
RGS16-Gao HTS: modulates binding between human RGS16 and Galphao; O15492+P09471; binding response (% of control), % at 10 µM; bead-based flow cytometry RGS16-Galphao binding, fluorescence; actives lie on both sides; actives 0.38% (n = 220,000); AID 1441;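 active means below 25% or above 175%, edge rows of some plates excepted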;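 further: Galphao activated by GDP with aluminum fluoride before binding; 100% = wells without compound and 0% = beads without RGS; some results beyond the cut were filed as inactive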
Target sequence (O15492 whole entry, looked up): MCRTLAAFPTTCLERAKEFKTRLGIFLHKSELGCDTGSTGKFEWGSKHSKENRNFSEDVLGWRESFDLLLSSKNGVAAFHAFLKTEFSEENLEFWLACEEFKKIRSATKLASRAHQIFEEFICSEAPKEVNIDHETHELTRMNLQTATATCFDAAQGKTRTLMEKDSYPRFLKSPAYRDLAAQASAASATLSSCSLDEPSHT
Target sequence (P09471 whole entry, looked up): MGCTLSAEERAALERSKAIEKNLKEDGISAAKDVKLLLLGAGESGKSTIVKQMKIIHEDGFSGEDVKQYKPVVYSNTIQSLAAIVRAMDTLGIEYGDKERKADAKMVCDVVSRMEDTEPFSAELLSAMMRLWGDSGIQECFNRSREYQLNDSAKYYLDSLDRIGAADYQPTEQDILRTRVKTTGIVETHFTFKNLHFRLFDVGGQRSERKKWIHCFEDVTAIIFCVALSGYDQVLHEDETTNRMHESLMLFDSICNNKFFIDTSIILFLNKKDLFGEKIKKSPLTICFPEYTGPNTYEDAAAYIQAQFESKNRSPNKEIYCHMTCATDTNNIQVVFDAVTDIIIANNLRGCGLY
PKD1 kinase inh: blocks activity of human protein kinase D1. Q15139. PKD1 kinase fluorescence polarization assay. inhibition, %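 (about 10 µM by stock and volumes)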. actives 0.056% (n = 200,000);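 active means inhibition of 50% or more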;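 further: controls were vehicle for no effect and a reference inhibitor for full effect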
INS promoter inh cell count: further read-out of INS promoter inh, marked with its call; normalized cell count, %; measured here: cell count, toxicity; reference of the scale not given here;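 cells exposed to compound for 48 h; stained nuclei by imaging scaled within each plate; lower means fewer cells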
HSV augment primary fold: further read-out of HSV augment, marked with its call; fold increase; compound at 10 µM; measured here: primary screen fold increase 10 uM; tested in PC3 cells;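 GFP signal in the first replicate; 1 = infected wells without compound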
An asterisk follows results filed as active; i = inactive; ? = inconclusive; . = not tested or not shown.

SMILES	HSV augment	HSV augment primary fold	GALR2 agonist	INS promoter inh	INS promoter inh cell count	RGS16-Gao HTS	PKD1 kinase inh
CC(C)CNc1ncnc2c1sc1nc(N3CCOCC3)c3c(c12)CC(C)(C)OC3	i	0.84	-0.9	-33	77	94	-3
COc1ccc(N2CCN(S(=O)(=O)Cc3ccccc3)CC2)cc1	i	1.5	-1.2	29	108	99	-6
CCOC(=O)c1sc(-c2ccccc2)cc1NC(=O)Nc1ccccc1	i	1	1.0	0	73	160	4
O=C(C1CCCN(S(=O)(=O)c2cccc3nsnc23)C1)N1CCCCCC1 (stereo not given)	i	0.98	.	.	.	100	-2
O=C(CC1C(=O)NCCN1Cc1cccc(Oc2ccccc2)c1)NCCc1cscn1 (stereo not given)	i	0.98	.	-9	124	105	9
Cc1ccc(S(=O)(=O)Nc2nsc(N)n2)cc1	i	0.88	-1.1	-19	101	107	-3
CCC(C(=O)OCCOCCN(CC)CC)c1ccccc1 (stereo not given)	i	1.1	.	.	.	96	.
O=C(CN(Cc1ccccc1)S(=O)(=O)c1cccc(C(F)(F)F)c1)NC1CCCCC1	i	1	0.9	.	.	102	14
CCOC(=O)C(C(=O)OCC)N(C#N)c1nc(N(C)C)nc(N(C)C)n1	i	0.88	.	.	.	99	10
Oc1ccc(Br)cc1C=Nc1ccc2c3c(cccc13)CC2	?	.	0.2	-104	93	43	-13
CCn1c(CNc2ccc(Cl)cc2)nnc1SCc1ccccc1	i	0.93	-1.2	-4	99	105	0
Cc1ccc(-c2nc3ccccc3c(=O)n2-c2c(C)n(C)n(-c3ccccc3)c2=O)cc1	i	0.92	.	.	.	100	.
COc1ccccc1OCCC(=O)Nc1cccc(S(=O)(=O)N2CCCCC2)c1	i	1	-0.4	-21	121	118	-1
CCOC(=O)C1=C(CSc2nncn2C)NC(=O)NC1c1cc(OCC)ccc1OCC (stereo not given)	i	0.91	-1.8	4	102	101	6
CCC(=O)Nc1nnc(SCC(=O)NCCc2ccc(OC)c(OC)c2)s1	i	0.95	.	.	.	112	-3
CN1C(C(=O)NCc2ccccc2)CC2Cn3c(nc4cc5ccccc5cc43)C21 (stereo not given)	i	0.49	.	.	.	104	.
CNC(=S)NNC(=O)c1sccc1C	i	0.88	-1.6	.	.	125	-14
COc1ccccc1NS(=O)(=O)c1ccc(Cl)c(NC(=O)CN2C(=O)c3ccccc3C2=O)c1	i	0.88	-1.5	0	131	110	5
COc1cccc(NC(=O)CSc2ncnc3c2cnn3Cc2ccccc2)c1	i	0.95	-0.1	21	133	101	-1
COC(=O)c1ccncc1C(=O)Nc1ccc(OC)cc1	i	0.91	.	44	73	86	4
Cc1c(CCO)c(=O)[nH]n1C(=O)c1c(F)cccc1F	i	0.69	-3.5	-35	81	92	-14
O=C(COC(=O)CNS(=O)(=O)/C=C/c1ccccc1)Nc1cc(S(=O)(=O)N2CCCCC2)ccc1Cl	i	1.1	.	-453	19	102	-5
COc1cc(CCC(=O)OCC(=O)Nc2c(C)cc(C)cc2C)cc(OC)c1OC	i	1	-0.1	-12	106	100	-2
COc1ccc(C2C(C(=O)OCC(=O)N3CCCCC3)CCC(=O)N2c2ccc(OC)cc2)cc1 (stereo not given)	i	0.79	-0.4	-8	154	104	14
CCN(CC)S(=O)(=O)c1ccc(Nc2nc3ccccc3n3nnnc23)cc1	i	0.78	-0.8	-50	56	100	-21
COc1cccc(CN2CCN(C(=O)c3cc(-c4ccccn4)nc4ccc(Cl)cc34)CC2)c1	i	0.9	.	.	.	99	-3
Cc1c(N=C2NC(=O)/C(=C/c3ccc(O)cc3)S2)c(=O)n(-c2ccccc2)n1C	i	0.97	-0.2	17	94	98	-15
O=C(O)C1Cc2ccccc2CN1S(=O)(=O)c1ccc2ccccc2c1 (stereo not given)	i	1.1	-3.0	-26	88	104	-12
Clc1ccc(SCc2cn3cccnc3n2)cc1	i	0.98	0.3	-16	153	101	-7
O=S(=O)(NCC1CCCO1)c1ccc(S(=O)(=O)N2CCc3ccccc3C2)cc1 (stereo not given)	i	0.82	-3.1	5	102	81	-1
Clc1ccccc1-c1nnn(Cc2ccc(-c3nn[nH]n3)cc2)n1	i	0.86	-3.1	44	111	104	-11
CCOC(=O)c1cc(=O)c2ccc(OCC(=O)Nc3ccccc3)cc2o1	i	1.2	.	.	.	94	.
COc1cccc2c1C(=O)c1ccc3ccccc3c1C2=O	i	0.94	-1.1	36	64	100	-9
COc1ccc(N/N=C(C)/C(=N/O)C(=O)Nc2ccccc2)cc1	i	1	.	-9	131	107	4
Clc1ccccc1OCCN1CCC(Cc2ccccc2)CC1	i	0.81	.	.	.	96	-8
NCCCNc1ccc([N+](=O)[O-])cc1C(F)(F)F	i	0.87	.	.	.	96	-3
COCCSc1ccccc1C(=O)Nc1ccccc1C#N	i	0.79	.	.	.	99	2
Cc1cc(C)n2c(SCc3cccs3)nnc2n1	i	0.96	-0.6	48	227	99	-10
COC(=O)c1[nH]c2cc(C)ccc2c1NC(=O)CN1CCOCC1	i	0.98	.	.	.	102	.
Nc1nc(SCc2ccc(Cl)cc2Cl)ns1	i	1.1	-3.0	17	97	39	-10
CN(CCc1cn[nH]c1)C(=O)CC1C(=O)NCCN1Cc1ccccc1C(F)(F)F (stereo not given)	i	1	.	13	93	94	4
CN(C)S(=O)(=O)c1ccc(C(=O)Oc2coc(CSc3ncccn3)cc2=O)cc1	i	0.94	.	.	.	105	-5
Cc1cccc(NC2SC(=O)NC2=O)c1 (stereo not given)	i	1.1	.	.	.	103	1
CC(=O)Nc1cc(C(=O)NCc2ccco2)ccc1Sc1ccc(Cl)cc1	i	0.94	-0.7	-4	81	108	0
CC(C(=O)Nc1ccc(C#N)cc1)N(C)CC(=O)Nc1ccccc1Br (stereo not given)	i	0.97	.	-9	76	115	-4
CC1(C)CC(=O)C(CC(=O)Nc2ccc(S(N)(=O)=O)cc2)=C(O)C1	i	1.2	-2.4	56	180	116	-3
CCn1cnc2c(cnn2-c2ccccc2)c1=O	i	0.85	-1.2	54	57	100	-1
COc1cccc(-n2cnc(=O)c3cccnc32)c1	i	0.98	-1.2	33	116	110	-3
CCOC(=O)N1CCN(c2ccc(C(C)=O)cc2F)CC1C (stereo not given)	i	1.1	.	.	.	99	-3
COCCNC(=O)Cc1ccc(F)cc1	i	0.97	-2.0	36	132	110	4
FC(F)(F)c1nnc(-c2ccccc2)nc1Sc1ccc(Cl)cc1	i	0.62	-0.8	14	130	104	4
O=C(CSCC(=O)NCc1ccco1)NCc1ccco1	i	0.92	-0.5	.	.	102	-21
COc1ccc(CCNC(=O)Cn2nnc3ccccc3c2=O)cc1	i	1.2	0.7	.	.	100	4
CCOC(=O)N1CCC(NC(=O)CCc2c(C)nc3nc(C)nn3c2C)CC1	.	.	-0.3	.	.	102	-16
O=C(NCCN1C(=O)S/C(=C\c2cccnc2)C1=O)C1CC(=O)N(Cc2ccco2)C1 (stereo not given)	i	0.96	.	39	178	102	6
COCCN(C(=O)CNC(=O)c1cccs1)C(C(=O)NC1CCCC1)c1cccs1 (stereo not given)	i	0.92	-0.9	-23	127	102	-19
C1=C(c2ccc(-c3ccccc3)cc2)Nc2ncnn2C1c1ccco1 (stereo not given)	?	.	0.7	.	.	87	0
CCOCC(=O)Nc1ccc(Br)c(C)c1	i	0.97	.	.	.	105	-4
Cc1noc(C)c1COC(=O)c1ccccc1NC(=O)Cc1ccccc1	i	0.93	0.3	-39	116	95	7
Cc1cccc(C(=O)NNC(=O)CCn2nnc3ccccc32)c1	i	0.84	.	.	.	107	-5

Some of the entries so far, with values under each structure:
Each structure is followed by: HSV augment	HSV augment primary fold	GALR2 agonist	INS promoter inh	INS promoter inh cell count	RGS16-Gao HTS	PKD1 kinase inh
> CCn1cnc2c(cnn2-c2ccccc2)c1=O
  i	0.85	-1.2	54	57	100	-1
> COc1cccc(-n2cnc(=O)c3cccnc32)c1
  i	0.98	-1.2	33	116	110	-3
> CCOC(=O)N1CCN(c2ccc(C(C)=O)cc2F)CC1C (stereo not given)
  i	1.1	.	.	.	99	-3
> COCCNC(=O)Cc1ccc(F)cc1
  i	0.97	-2.0	36	132	110	4
> FC(F)(F)c1nnc(-c2ccccc2)nc1Sc1ccc(Cl)cc1
  i	0.62	-0.8	14	130	104	4
> O=C(CSCC(=O)NCc1ccco1)NCc1ccco1
  i	0.92	-0.5	.	.	102	-21
> COc1ccc(CCNC(=O)Cn2nnc3ccccc3c2=O)cc1
  i	1.2	0.7	.	.	100	4
> CCOC(=O)N1CCC(NC(=O)CCc2c(C)nc3nc(C)nn3c2C)CC1
  .	.	-0.3	.	.	102	-16
> O=C(NCCN1C(=O)S/C(=C\c2cccnc2)C1=O)C1CC(=O)N(Cc2ccco2)C1 (stereo not given)
  i	0.96	.	39	178	102	6
> COCCN(C(=O)CNC(=O)c1cccs1)C(C(=O)NC1CCCC1)c1cccs1 (stereo not given)
  i	0.92	-0.9	-23	127	102	-19
> C1=C(c2ccc(-c3ccccc3)cc2)Nc2ncnn2C1c1ccco1 (stereo not given)
  ?	.	0.7	.	.	87	0
> CCOCC(=O)Nc1ccc(Br)c(C)c1
  i	0.97	.	.	.	105	-4

Going on with the list.
SMILES	HSV augment	HSV augment primary fold	GALR2 agonist	INS promoter inh	INS promoter inh cell count	RGS16-Gao HTS	PKD1 kinase inh
CC1=C(C(=O)OCc2ccccc2)C(c2ccc(C(C)(C)C)cc2)NC(=O)N1CCCCCC(=O)O (stereo not given)	i	0.86	-2.8	38	56	171	-5
Cc1ccccc1C(=O)c1cccn1CC(=O)NCC1CCCO1 (stereo not given)	i	1	-2.6	-71	91	97	-3
COc1ccc([N+](=O)[O-])cc1NC1CCCCC1	i	1.1	-1.7	0	111	95	-1
Cc1ccc(-n2c(CSc3nc(C)cc(C)n3)n[nH]c2=S)cc1	i	0.98	.	.	.	93	-3
Cc1ccc(C(=O)Nc2ccc(Br)cc2)cc1S(=O)(=O)Nc1ccccn1	i	1.3	0.6	.	.	102	4
NS(=O)(=O)c1ccc(CCNC(=O)C2Cc3ccccc3CN2C(=O)c2ccco2)cc1 (stereo not given)	i	0.88	-0.3	.	.	104	-2
CCCCCc1cc(=O)oc2c(C(CCN3CCCC(C)C3)c3cc(OC)c(OC)c(OC)c3)c(OC)cc(OC)c12 (stereo not given)	i	0.7	.	.	.	102	.
O=C(/C=C/c1ccc2c(c1)OCO2)Nc1cccnc1	i	0.9	.	.	.	96	2
N#CC1=C(N)NC(SCC(=O)c2ccccc2)=C(C#N)C12CCCC2	i	0.82	-0.7	-61	111	108	-9
O=C(COC(=O)c1cccc(Br)c1)NCCc1ccccc1	i	1.1	-2.8	.	.	110	-11
COc1ccc2[nH]c(=O)c(C(c3nnnn3C3CCCCC3)N3CCN(C)CC3)cc2c1 (stereo not given)	i	0.7	0.6	33	107	191	-9
CNS(=O)(=O)c1ccc(C)cc1	i	1.1	-2.0	-29	118	97	-3
Nc1cc(S(=O)(=O)Nc2cc(Cl)ccc2Cl)ccc1N1CCCC1	i	0.94	.	.	.	98	.
O=C(CSc1nnc(COc2ccccc2)o1)N1CCOCC1	i	1.1	.	.	.	97	-1
COc1ccc(/C=C/C(=O)OCC(=O)Nc2cccc(Oc3ccccc3)c2)c(OC)c1	i	0.91	-1.6	42	124	94	-4
CCCc1[nH]nc2c1C(c1ccc(OC)c(Cn3nc(C)c(Br)c3C)c1)C(C#N)=C(N)O2 (stereo not given)	i	1	-1.6	41	76	99	-10
CCOc1ccc2nc(NC(=O)C3CCN(S(=O)(=O)c4cnc[nH]4)CC3)sc2c1	i	0.88	-2.5	.	.	105	8
O=C(Nc1ccccn1)c1cc2cc([N+](=O)[O-])ccc2s1	i	0.77	.	.	.	99	7
C[C@]12CC[C@@H]3c4ccc(O)cc4[C@@H](O)C[C@H]3[C@@H]1CC[C@@H]2O	i	0.95	-1.9	-57	195	103	-13
COc1cc(O)c(C(CC(=O)N2CCCCC2)c2cc(OC)c(OC)c(OC)c2)c(OC)c1 (stereo not given)	i	1.2	.	.	.	99	.
